High-throughput results: PubChem BioAssay, National Center for Advancing Translational Sciences (NCATS)
Menin MLL FP FL = displaces fluorescein MLL peptide from human menin; FP activity change, % at 61.4 µM; 290,000 tested, under 10 active; AID 1766; Fluorescence polarization, fluorescein-MLL peptide displacement from menin; inconclusive = falling polarisation curve, or a change in total fluorescence; inactive = total fluorescence flat and polarisation flat or rising; no compound was filed as active; the % refers to the polarisation; negative = inhibition;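 also: % of control where 0% means no effect; inhibitors lower the polarisation; unlabelled MLL peptide was the positive control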
ClpP mod = qHTS Assay for Activators of ClpP | Potency, µM (titrated, usually from 57.5 µM), inactives show top-dose activity change, negative = active | AID 651965, 2013 | 340,000 compounds, 1.9% hits | purified B. subtilis ClpP, FRET peptide cleavage, 20 min | ATP-dependent Clp protease proteolytic subunit (Bacillus subtilis (strain 168)), P80244; active = well fitted falling curve with a large enough effect; inconclusive = small, poorly fitted or top-dose-only effect; inactive = no such curve, though single readings can be large or run the other way; also: potency is read from the fitted curve at half-maximal effect; the source files actives as falling curves though it sought activators and does not explain the sign; nearly all actives have a fitted effect of over 65% in size; many hits overshoot -100%
Target sequence (P80244 whole entry, looked up): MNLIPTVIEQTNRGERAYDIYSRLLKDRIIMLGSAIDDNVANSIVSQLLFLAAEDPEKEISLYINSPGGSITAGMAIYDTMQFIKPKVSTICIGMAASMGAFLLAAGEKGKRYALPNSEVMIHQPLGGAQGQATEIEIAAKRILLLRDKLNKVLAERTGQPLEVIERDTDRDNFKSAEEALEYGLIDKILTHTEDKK
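ClpP 10 microg/mL final, pH 8 Tris/KCl buffer with BSA, glycerol, Tween-20; compound pinned in; FRET-FV substrate; RT 20 min; Ex320/Em430; ΔFRET vs ADEP 5.8 microM, DMSO, no enzyme.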
Sfp PPTase inh = inhibitors of Bacillus subtilis Sfp phosphopantetheinyl transferase | Q9F4F7 | Biochemical Sfp PPTase activity, qHTS | Potency, µM, without a hit: max response, negative = inhibition, actives largely listed as inhibitors | 310,000 compounds, 3.5% hits | AID 1490; active = well fitted inhibition curve with a large enough effect; inconclusive = small, poorly fitted or top-dose-only effect, or another doubt; inactive = no such curve, though single readings can be large or run the other way;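 also: the enzyme is Sfp with the accession as filed and its product quenches rhodamine fluorescence; potency is read from the fitted curve at half-maximal effect; 0% = enzyme reaction without inhibitor and -100% = no enzyme wells; top concentration of the series not given in the record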
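Fluorescence-quenching assay with 15 nM Sfp, 5 uM rhodamine-CoA and 12.5 uM BHQ-2-labelled ybbR peptide in pH 7.6 Hepes/MgCl2 buffer. Enzyme was pre-incubated with compound for 15 min at room temperature. Rate was taken from the 30-min fluorescence change (525/598 nm).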
gsp agonist = agonists of gsp mutant (McCune-Albright syndrome). 340,000 compounds, 0.13% hits. Potency, µM (top dose mostly 76.9 µM), for the others: at the highest dose activation (cAMP increase), most hits filed as activators. gsp mutant cells, cAMP HTRF, 30 min; control for the full effect not named in the record; active = well fitted activation curve with a large enough effect; inconclusive = small, poorly fitted or top-dose-only effect, or another doubt; inactive = no such curve, though single readings can be large or run the other way; cell line not stated here;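 also: phosphodiesterase inhibitor Ro 20-1724 added with compounds to block cAMP breakdown; potency is read from the fitted curve at half-maximal effect; nearly all actives have a fitted effect of over 60% in size; about a fifth of the inactives were tested at one dose only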
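Cells stably selected in G418 were plated at 2000/well, grown 16-24 hr, then given compounds in DMSO with the PDE inhibitor […] (300 uM solution added) for 30 min at 37C; cAMP was read by HTRF.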
TRPV1 PAM = human TRPV1 potentiation. Q8NER1. TRPV1-expressing cells, Fluo-8 calcium influx, capsaicin EC20 potentiation; host cell line not named in the record; control for the full effect not named in the record. potentiation, % at 8.33 µM. 320,000 compounds, 0.02% hits. AID 540277; active means potentiation above 80%; inconclusive means 30% to 80%; inactive means below 30%; also: 0% is about no effect
Target sequence (Q8NER1 whole entry, looked up): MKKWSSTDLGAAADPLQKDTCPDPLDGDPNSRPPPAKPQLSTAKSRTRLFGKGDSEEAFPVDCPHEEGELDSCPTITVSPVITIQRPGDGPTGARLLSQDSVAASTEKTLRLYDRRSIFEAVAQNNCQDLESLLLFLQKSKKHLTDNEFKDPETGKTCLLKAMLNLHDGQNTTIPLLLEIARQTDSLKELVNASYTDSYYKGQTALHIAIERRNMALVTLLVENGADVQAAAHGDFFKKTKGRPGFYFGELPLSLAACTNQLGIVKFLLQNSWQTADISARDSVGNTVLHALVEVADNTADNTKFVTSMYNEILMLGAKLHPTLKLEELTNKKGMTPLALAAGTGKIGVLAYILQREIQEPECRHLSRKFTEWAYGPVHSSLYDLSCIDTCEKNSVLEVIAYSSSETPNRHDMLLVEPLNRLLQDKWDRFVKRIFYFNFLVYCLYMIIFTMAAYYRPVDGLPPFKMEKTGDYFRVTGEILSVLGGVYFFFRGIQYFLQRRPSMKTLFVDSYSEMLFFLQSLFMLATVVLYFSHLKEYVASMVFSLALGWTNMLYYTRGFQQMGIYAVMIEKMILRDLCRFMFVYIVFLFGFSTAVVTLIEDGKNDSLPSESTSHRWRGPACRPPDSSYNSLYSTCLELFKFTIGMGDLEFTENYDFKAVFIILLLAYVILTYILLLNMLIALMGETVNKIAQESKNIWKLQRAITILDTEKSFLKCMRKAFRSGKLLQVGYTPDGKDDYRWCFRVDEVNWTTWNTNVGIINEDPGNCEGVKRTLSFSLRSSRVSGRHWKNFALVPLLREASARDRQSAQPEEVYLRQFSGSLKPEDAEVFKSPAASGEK
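Cells expressing TRPV1 were dye-loaded with Fluo-8 and read kinetically: 10 s baseline, 3 min after compound (agonist portion), then 2 min after EC20 capsaicin (allosteric enhancer portion). Calcium-bound dye fluorescence at 480/520 nm.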
D2 PAM = human D2 receptor positive allosteric modulation; P14416; DiscoveRx D2 beta-arrestin cells, luminescence, 90 min; 100% = 57 uM dopamine signal; potentiation, % (concentration not given with the values); 360,000 compounds, 0.23% hits; AID 624464; active = potentiation of 50% or more; inconclusive = 30% to 50%; inactive = 30% or less;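 also: tested on top of an EC20 dose of dopamine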
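PathHunter beta-arrestin assay in DiscoveRx D2 cells. Compounds were added with an EC20 of dopamine (50 nM final) for 90 min at 37 deg C. Luminescence was read 1 h after detection reagent, with 57 uM dopamine as the EC100 control.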
gsp antagonist = gsp mutant antagonism; gsp-mutant cells, cAMP HTRF, 30 min; control for the full effect not named in the record; Potency, µM (highest dose often 76.9 µM), for the others: at the highest dose activity change, negative = inhibition, usual class: inhibitors; 340,000 compounds, 0.4% hits; active = falling curve of any shape with a large fitted effect; inconclusive = falling curve, mostly with a smaller effect; inactive = flat or rising curve; cell line not stated here;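 also: intracellular cAMP measured with PDE inhibitor Ro 20-1724 present during compound exposure; potency is read from the fitted curve at half-maximal effect; % is scaled to controls: 0 for no effect and ±100 for the full control effect; nearly all actives have a fitted effect of over 65% in size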
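HTRF cAMP measurement after 30 min RT detection following 30 min, 37C compound treatment alongside […] (added as 300 uM solution) in G418-selected cells seeded at 2000/well and grown 16–24 h.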
Active calls of the source: *; ? = inconclusive; . = not tested or not shown; [ ] = dose if it differs, or a comment.

Below each SMILES: gsp antagonist	Menin MLL FP FL	D2 PAM	gsp agonist	ClpP mod	TRPV1 PAM	Sfp PPTase inh
O=C(O)CCCNc1cc(N2CCN(C(=O)c3ccco3)CC2)c2noc3c2c1C(=O)c1ccccc1-3
 : ?	?	9	-48%[inhibitor]	0.5%	-1	-3%
O=C(c1[nH]ncc1-c1ccc(Cl)cc1)C1CO1 (stereo unspecified)
 : 5%	2.7	-8	-10%[15.4 µM]	.	.	10%
CN1/C(=C\C=N\O)C(C)(C)c2ccccc21
 : 7%	2.9	1	10%	.	-2	12%
Cc1ccccc1Cn1cc(NS(=O)(=O)c2cn(C)nc2C)cn1
 : 0%	.	-4	3%	-0.6%	1	22%
COC(=O)C(C)n1cnc2c(cnn2-c2ccc(Cl)cc2)c1=O (stereo unspecified)
 : -5%	0.1	13	-8%	-3.0%	13	10%
Cc1ccc(CN(C)C(=O)c2ccccc2Oc2ccccc2)o1
 : 4%	3.5	-6	-2%	-1.5%	3	14µM*
COc1ccc(NC(=O)CNC(=O)Cc2cccc3ccccc23)cc1
 : -3%	.	-3	9%	-1.3%	.	.
Cc1cc(C(C)(C)C)cc(S(=O)(=O)Nc2cccc(C(=O)O)c2)c1C
 : -14%	1.7	-7	23%	-0.2%	-9	11%
Cc1cc(C)c2c(=O)n3c(nc2c1)C(Cc1ccc(O)cc1)NC(=O)c1cc2ccccc2cc1-3 (stereo unspecified)
 : .	.	-2	-40%[inhibitor]	-16%	.	.
COc1ccccc1N/N=C/c1ccc2c(c1)OCO2
 : 44%[activator]	-1.3	-11	1%	-1.6%	7	-6%
O=C1CCCc2oc3c(cc(NS(=O)(=O)c4ccc5c6c(cccc46)C(=O)N5)c4ccccc43)c21
 : 22%	-1.9	8	-4%	.	12	-4%
C/C(=N/NC(=O)CNc1ccc(C)cc1)c1ccc(Br)s1
 : 4%	-5.5	-1	?	0.5%	8	0%
CC1(c2nnc(-c3cccc(Cl)c3)o2)CC(c2ccc(Cl)cc2)=NO1 (stereo unspecified)
 : -8%	.	-3	.	0.9%	.	.
CCN(c1ccccc1)S(=O)(=O)c1ccc2c(c1)CC(C)N2C(=O)C1CC1 (stereo unspecified)
 : ?	0.2	-10	18%	-0.8%	-3	-6%
COc1cccc(OC)c1C(=O)Nc1ccncc1
 : 0%	.	-6	13%[15.4 µM]	-0.9%	.	.
COCCn1c(N)c(NCc2ccccc2)c(=O)n(CC(=O)Nc2cc(C)ccc2C)c1=O
 : 2%	?	-20	-36%[inhibitor]	-7.1%	9	8%
Cc1nn(C)c(C(=O)NNC(=S)Nc2ccc(Cl)cc2)c1[N+](=O)[O-]
 : -2%	3.8	-17	-33%	1.1%	3	-1%
COc1cccc2c1c(NC(=O)c1cc(C)on1)nn2C
 : 10%	-0.9	-5	-2%[15.4 µM]	1.8%	-4	14%
O=C(NCc1ccccc1F)C(=O)NCC1OCCCN1S(=O)(=O)c1cccs1 (stereo unspecified)
 : 5%	.	3	0%[15.4 µM]	0.9%	4	-6%
C[C@H](O)C#Cc1ccc2c(c1)O[C@@H](CN(C)Cc1ccc(-c3ccccc3)cc1)[C@H](C)CN([C@@H](C)CO)S2(=O)=O
 : .	.	-7	?	-1.2%	.	.
CC1CCCCN1S(=O)(=O)c1ccc(S(=O)(=O)N(CC(=O)Nc2ccccc2)Cc2cccs2)cc1 (stereo unspecified)
 : -20%	-0.1	-8	-47%[inhibitor]	0.7%	4	22%
Cc1c(NS(=O)(=O)c2cc(C(=O)NCC3CCCO3)cc(Cl)c2Cl)c(=O)n(-c2ccccc2)n1C (stereo unspecified)
 : -22%	.	3	-1%	-1.5%	6	.
Nc1c(C(=O)Nc2ccccc2)c2nc3ccccc3nc2n1CCCN1CCOCC1
 : -4%	0.3	-16	15%[15.4 µM]	.	-2	-18%
COc1ccccc1-c1cn[nH]c(=S)n1
 : -3%	0.1	-21	12%	-0.4%	-4	45µM*
C=CC(=O)N1C/C(=C/c2ccc(F)cc2)C(=O)/C(=C\c2ccc(F)cc2)C1
 : 5%	.	-28	10%	-0.5%	.	.
CCOc1ccc(OCCCC(=O)NCCc2ccc(OC)cc2)cc1
 : 4%	.	-12	4%	-1.0%	-9	11%
O=C(CSc1ccccc1)NCCc1ccccc1
 : 5%	4.4	-5	-79%[inhibitor]	.	-22	15%
COc1ccc(/C=C/c2nnc(NC(=O)COc3cccc(C)c3)s2)cc1
 : 9%	-0.2	8	26%	?	-7	25%
CCn1nnnc1SCC(=O)N1c2ccccc2NC(=O)CC1C (stereo unspecified)
 : -12%	.	-2	-21%	-1.7%	12	.
CCOc1ccccc1NC(=O)Nc1cccc(S(N)(=O)=O)c1
 : 3%	0.7	-4	1%[15.4 µM]	0.6%	14	3%
CC12CCC(=O)C=C1CCC1C2C(O)CC2(C)C1CCC2(O)C(=O)COC(=O)COCC(=O)O (stereo unspecified)
 : 12%	.	-1	-7%	.	.	.
NC(=O)[C@H]1CC2(CC(c3cccc(NC(=O)COc4ccc(Cl)cc4)c3)=NO2)CN1C(=O)Cc1ccc([N+](=O)[O-])cc1 (stereo partly specified)
 : -2%	5.4	-7	-116%[inhibitor]	-6.2%	2	7%
O=[N+]([O-])c1ccc(Sc2ccccc2Cl)nc1
 : 4%	0.1	17	-29%	0.2%	-32	-13%
COC(=O)c1ccc2nc(NC(=O)CCS(=O)(=O)c3ccccc3)sc2c1
 : -2%	.	-1	?	-24%	-8	4%
COc1ccccc1-n1c(SCC(N)=O)nnc1-c1ccccc1
 : 7%	-0.4	-4	?	-2.0%	-7	17%
COc1ccc(NC(=O)CSc2nnc(CNC(=O)c3ccco3)o2)cc1
 : 12%	3.4	-3	?	-1.0%	?	15%
CCc1cc(CNC(=O)c2cccc(OC3CCN(S(C)(=O)=O)CC3)c2)on1
 : -5%	.	12	2%	5.4%	.	.
C=C1[C@@H](O)[C@H](Cc2ccccc2)N(Cc2ccccc2Br)S1(=O)=O
 : -1%	.	-5	.	-1.7%	.	.
O=C1c2ccc(-c3nc4ccccc4o3)cc2C(=O)N1Cc1cccnc1
 : 4%	.	5	-20%	7.8%	.	.
CCOc1ccc(NC(=O)c2ccccc2NC(=O)CN(C)CC(=O)Nc2ccc(C)cc2)cc1
 : -1%	-1.5	0	?	-3.0%	?	18%
CC(=O)NC12CC3CC(C1)CC(C(=O)Nc1nccs1)(C3)C2
 : 7%	-4.8	-5	9%	-0.5%	0	21%
O=C(c1cc(-c2ccc(Cl)cc2)on1)N1CCN(c2ccc(F)cc2)CC1
 : -14%	-2.8	-5	6%[15.4 µM]	-0.4%	-13	?
COc1ccc(/C=N/NC(=O)c2ccc(Br)cc2)cc1CN1CCOCC1
 : -1%	1.7	-10	-3%[15.4 µM]	.	-4	7%
O=C(O)CCC(=O)NNC(=O)c1cccc(Cl)c1
 : 19%	8.7	-8	-49%[inhibitor]	0.5%	5	15%
Oc1ccc(Cl)cc1-c1cc(-c2cccc(Br)c2)n[nH]1
 : -17%	0.7	0	19%	0.2%	?	-10%
Cc1ccc(N2C(=N)SCC2=O)cc1Cl
 : 8%	2.7	-17	-2%[15.4 µM]	-1.5%	-2	5%
COCCCN1C(=O)C(=O)/C(=C(/O)c2ccc(OC)cc2)C1c1ccc(O)c(OC)c1 (stereo unspecified)
 : 7%	3.0	-17	?	1.0%	3	0%
O=S1(=O)N=C(Nc2nc3c(s2)CCCC3)c2ccccc21
 : -12%	-0.7	-20	-2%	-2.2%	-11	-3%
Cc1ccc(/C=C2\SC(N3CCN(C(c4ccccc4)c4ccccc4)CC3)=NC2=O)o1
 : -15%	.	-22	-37%[inhibitor]	-2.6%	-2	4µM*
Cc1ccccc1C(=O)Nn1cnnc1
 : 8%	-4.2	0	-52%[inhibitor]	.	-4	1%
Cc1cccc(Oc2coc3cc(OC(=O)c4cc5ccccc5oc4=O)ccc3c2=O)c1
 : -2%	2.6	-7	-49%[inhibitor]	2.8%	-7	5%
N#Cc1ccccc1S(=O)(=O)N1CCC(C(=O)Nc2cccc(C(=O)NC3CC3)c2)CC1
 : 1%	.	-11	16%	-1.8%	15	.
O=C(c1cccc(S(=O)(=O)N2CCCC2)c1)N1CCN(S(=O)(=O)c2cccc(Cl)c2)CC1
 : -20%	.	-6	25%	-1.1%	.	.
CCOC(=O)C1(CCOC)CCN(C/C=C/c2ccccc2OC)CC1
 : 2%	.	-8	2%	-8.4%	.	.
Cc1ccc(C2=NN(C(=O)CN3C(=O)c4ccccc4S3(=O)=O)C(c3ccco3)C2)cc1 (stereo unspecified)
 : -9%	-5.1	-5	20%[15.4 µM]	.	3	7%
CC(C)N1C(=S)SC2CS(=O)(=O)C=C21 (stereo unspecified)
 : 0%	0.2	-2	0%	-10%	-6	5%
c1ccc2c(-c3nnc4n3CCCCC4)c[nH]c2c1
 : 0%	2.1	-2	-20%	0.8%	-29	0%
CNC(=O)C12N=CNN=C1N(C)C(=O)N2C (stereo unspecified)
 : 11%	1.7	-13	17%[15.4 µM]	.	?	8%
Cc1nc(NC(=O)c2ccc(-c3cc4ccccc4oc3=O)cc2)ccc1Br
 : 4%	0.9	6	8%	?	19	2%
O=C(Nc1ccncc1)Nc1cccc(C(F)(F)F)c1
 : 2%	0.3	-25	2%	-2.8%	-1	6%
CCOC(=O)Cc1cc(=O)[nH]c(=O)[nH]1
 : 4%	-6.0	-2	-3%	.	9	23%
CCOc1ccc(NC(=O)COC(=O)c2cccnc2)cc1
 : 6%	?	2	-2%	-0.8%	-8	19%

2 entries drawn at random from the list so far:
Below each SMILES: gsp antagonist	Menin MLL FP FL	D2 PAM	gsp agonist	ClpP mod	TRPV1 PAM	Sfp PPTase inh
O=C1c2ccc(-c3nc4ccccc4o3)cc2C(=O)N1Cc1cccnc1
 : 4%	.	5	-20%	7.8%	.	.
Cc1ccc(C2=NN(C(=O)CN3C(=O)c4ccccc4S3(=O)=O)C(c3ccco3)C2)cc1 (stereo unspecified)
 : -9%	-5.1	-5	20%[15.4 µM]	.	3	7%
